# Rango complex inh – prevents formation of the Rango-importin beta complex; Q14974; Rango CFP/YFP FRET sensor + importin beta, 45 min; Potency, µM (series often up to 92.2 µM), inactives show at the top dose inhibition of complex formation; 340,000 tested, 0.031% active; AID 540263; active = rising FRET ratio curve, often small or poorly fitted; inconclusive = mostly compound fluorescence or quenching in the first reads; inactive = flat curves in all reads;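 further: potency means the concentration at half of the fitted maximal effect; 0% = DMSO wells and 100% = buffer wells lacking importin beta; nearly all actives have a fitted effect of over 15% in size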
# Target sequence (Q14974 whole entry, looked up): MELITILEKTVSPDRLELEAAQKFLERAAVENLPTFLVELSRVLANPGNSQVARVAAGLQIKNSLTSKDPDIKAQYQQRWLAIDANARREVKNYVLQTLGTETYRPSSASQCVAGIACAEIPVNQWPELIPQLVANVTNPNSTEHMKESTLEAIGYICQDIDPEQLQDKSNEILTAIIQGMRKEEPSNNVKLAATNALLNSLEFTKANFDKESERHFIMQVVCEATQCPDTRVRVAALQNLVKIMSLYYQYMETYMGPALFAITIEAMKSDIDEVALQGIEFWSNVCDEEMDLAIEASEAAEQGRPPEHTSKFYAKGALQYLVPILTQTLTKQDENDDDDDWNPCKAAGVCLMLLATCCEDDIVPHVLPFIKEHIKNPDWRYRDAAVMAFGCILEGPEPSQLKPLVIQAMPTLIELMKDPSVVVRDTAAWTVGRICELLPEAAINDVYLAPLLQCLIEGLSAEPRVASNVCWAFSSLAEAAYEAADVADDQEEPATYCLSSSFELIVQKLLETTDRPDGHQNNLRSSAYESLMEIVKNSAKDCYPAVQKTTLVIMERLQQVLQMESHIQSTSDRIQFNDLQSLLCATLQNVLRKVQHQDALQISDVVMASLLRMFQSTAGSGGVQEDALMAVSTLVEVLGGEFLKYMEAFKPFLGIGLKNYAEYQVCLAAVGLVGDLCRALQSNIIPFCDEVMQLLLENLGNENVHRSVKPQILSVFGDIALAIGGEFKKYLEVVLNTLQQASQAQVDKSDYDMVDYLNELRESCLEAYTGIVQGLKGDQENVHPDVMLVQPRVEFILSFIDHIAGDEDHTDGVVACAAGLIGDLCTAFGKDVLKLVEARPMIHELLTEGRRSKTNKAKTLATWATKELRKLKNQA
#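 FRET biosensor Rango (snurportin 1 IBB between N-terminal EYFP and C-terminal Cerulean), 50 nM in PBS/1 mM DTT/0.02% Tween-20/0.1% BSA, preincubated 5 min RT with compound; 0.125 microM importin beta added, 45 min RT, CFP/YFP FRET ratio read.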
# miR-21 FLuc – raises the signal of a miR-21 reporter; HeLa miR-21 FLuc reporter, luciferase, 48 h; AID 2288; 340,000 tested, under 10 active; Potency, µM (top dose mostly 38.3 µM), inactives show at the highest dose reporter change, positive = more light; active = well fitted rising curve with a large enough effect; inconclusive = small, poorly fitted or top-dose-only effect; inactive = no such curve, though single readings can be large or run the other way;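 further: % of control where 0% means no effect; miR-21 action dims this reporter so a rising signal means less miR-21 action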
#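 HeLa cells endogenously expressing miR-21, stably carrying CMV-driven firefly luciferase with a downstream miR-21 binding site, 2000 cells/well. Titrations up to approximately 40 uM, 48 hours; luciferase luminescence read.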
# Rango dissoc inh – inhibitors of RanGTP-induced Rango-importin beta complex dissociation. 340,000 tested, 0.071% active. Biochemical FRET Rango-importin beta, RanGTP-induced dissociation. Potency, µM (series often up to 46.1 µM), without a hit: at the highest dose activity change, negative = inhibition. AID 540253. O95149+P62826; active means falling FRET ratio curve, often poorly fitted, with flat reads before Ran was added; inconclusive means other falling curves, or compound fluorescence or quenching; inactive means flat or rising ratio curve;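 further: potency means the concentration at half of the fitted maximal effect; % of control where 0% means no effect; nearly all actives have a fitted effect of over 45% in size; -100% = wells without RanGTP and RCC1; the record marks most hits as doubtful in a second field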
#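 Compounds preincubate 5 min with complex of recombinant Rango and importin beta in PBS with 1 mM DTT. Ran (0.6 uM) loaded with 2 mM GTP plus 0.2 uM RCC1 starts dissociation; FRET is recorded 45 min later.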
# GLA inh pH 4.5 – inhibitors of human alpha-galactosidase A at pH 4.5 | purified enzyme, 4-MU-alpha-Gal fluorescence, pH 4.5 | activity change, negative = inhibition, % at 105 µM | 230,000 tested, under 10 active | P06280; inconclusive = small, poorly fitted or top-dose-only inhibition, or a rising curve; inactive = flat fitted curve, though single readings scatter; no compound was filed as active;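 further: 0% = full activity with enzyme and -100% = basal without enzyme; dose as in the result columns while the protocol names 77 µM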
# Active calls of the source: *; ? = inconclusive; nt = not tested or not shown. Not all compounds are listed. The share of hits here may be higher or lower than overall.
SMILES,Rango complex inh,miR-21 FLuc,Rango dissoc inh,GLA inh pH 4.5
NCCCCCc1nnc(SC/C=C/c2ccccc2)o1,-6.6%,-0.1%,-10.8%,6.9
COc1ccc(NC(=O)c2sc(N)nc2-c2ccccc2)cc1,2.1%,-19.4%,-8.1%,-9.4
O=C(COc1cccc(F)c1)Oc1ccc(C(=O)c2ccccc2)cc1,-0.8%,-12.3%,-9.4%,1.4
Cn1c(Cn2c(=O)sc3ccccc32)nnc1SCC(=O)NCC1CCCO1 (configuration not stated),3.0%,-0.9%,21.9%,-7.7
O=C(C1CC1)N1N=C(c2ccc(F)cc2)CC1(O)C(F)(F)F (configuration not stated),-1.1%,-0.7%,0.5%,nt
O=C(CN1CCOCC1)NCc1ccccc1Cl,0.9%,-2.8%,15.8%,nt
O=C(CN1C(=O)c2cccc3cccc1c23)N1CCN(c2cccc(Cl)c2)CC1,-1.0%,-2.4%,?,-6.1
CCOc1ccccc1NC(=O)c1ccc2ccccc2c1,-3.2%,-25.4%,-24.3%,nt
CCCCNC(=O)Nc1ccccc1C(=O)Nc1ccc(OC)cc1,-5.6%,-18.4%,-8.9%,-0.3
CCCc1cc(=O)[nH]c(SCC(=O)NN(c2ccccc2)c2ccccc2)n1,-1.0%,-5.1%,-15.6%,-5.3
Clc1ccc2oc(-c3cccnc3)nc2c1,5.0%,-41.0%,0.1%,-16.4
O=C(CN1CCN(C(=O)c2ccco2)CC1)Nc1ccc(Cl)c(C(F)(F)F)c1,0.0%,3.0%,0.4%,1.4
CCOP(=O)(c1ccc(N(C)C)cc1)C(O)c1ccc(Cl)cc1 (configuration not stated),-6.6%,-12.5%,2.2%,4.4
O=C1N=C(N2CCOCC2)S/C1=C/c1cc2c(cc1[N+](=O)[O-])OCO2,-0.7%,1.9%,-20.2%,-9.0
O=C(O)c1ccc(-c2nc(-c3cccc(C(F)(F)F)c3)cs2)cc1,-0.3%,-7.9%,-4.9%,-2.9
COc1ccc(OC)c(C(=O)N2CCCC(Nc3ccc(F)cc3)C2)c1 (configuration not stated),3.8%,-1.4%,9.0%,nt
COC(=O)c1ccc(C(=O)OC)c(NC(=O)COC(=O)C2CCCCC2)c1,2.2%,0.4%,3.0%,-1.6
CCOc1ccc(NC(=O)COC(=O)CC2CCCCC2)cc1,0.1%,nt,-4.0%,nt
Cc1ccccc1N(C)C(=O)c1coc(=O)c2ccccc12,-1.1%,7.7%,1.3%,4.2
COc1cc2[nH]c(=S)n(CC3CCCO3)c(=O)c2cc1OC (configuration not stated),-0.6%,-3.9%,2.2%,7.1
CC(=O)c1cccc(NC(=S)N2CCC(Cc3ccccc3)CC2)c1,-1.8%,-6.8%,9.3%,-2.8
COC(=O)c1ccc(Cl)c(NC(=O)CN(c2ccc(OC)cc2)S(=O)(=O)c2ccccc2)c1,-3.4%,nt,13.3%,nt
O=C(CSc1nnc(-c2ccc(S(=O)(=O)N3CCOCC3)cc2)o1)c1ccccc1F,4.2%,-5.8%,9.5%,-19.8
COc1ccc(-c2cc(=O)oc3cc(OCC(=O)NCc4ccccn4)ccc23)cc1,0.5%,-5.6%,-4.7%,nt
CCN1C(=O)[C@@H]2[C@@H](c3ccc(-c4ccc(C(C)=O)cc4)c(OC)c3)N3CCC[C@@]3(C(=O)OC)[C@@H]2C1=O,1.1%,nt,1.1%,nt

# By substructure: those above containing a halogen.
SMILES,Rango complex inh,miR-21 FLuc,Rango dissoc inh,GLA inh pH 4.5
O=C(COc1cccc(F)c1)Oc1ccc(C(=O)c2ccccc2)cc1,-0.8%,-12.3%,-9.4%,1.4
O=C(C1CC1)N1N=C(c2ccc(F)cc2)CC1(O)C(F)(F)F (configuration not stated),-1.1%,-0.7%,0.5%,nt
O=C(CN1CCOCC1)NCc1ccccc1Cl,0.9%,-2.8%,15.8%,nt
O=C(CN1C(=O)c2cccc3cccc1c23)N1CCN(c2cccc(Cl)c2)CC1,-1.0%,-2.4%,?,-6.1
Clc1ccc2oc(-c3cccnc3)nc2c1,5.0%,-41.0%,0.1%,-16.4
O=C(CN1CCN(C(=O)c2ccco2)CC1)Nc1ccc(Cl)c(C(F)(F)F)c1,0.0%,3.0%,0.4%,1.4
CCOP(=O)(c1ccc(N(C)C)cc1)C(O)c1ccc(Cl)cc1 (configuration not stated),-6.6%,-12.5%,2.2%,4.4
O=C(O)c1ccc(-c2nc(-c3cccc(C(F)(F)F)c3)cs2)cc1,-0.3%,-7.9%,-4.9%,-2.9
COc1ccc(OC)c(C(=O)N2CCCC(Nc3ccc(F)cc3)C2)c1 (configuration not stated),3.8%,-1.4%,9.0%,nt
COC(=O)c1ccc(Cl)c(NC(=O)CN(c2ccc(OC)cc2)S(=O)(=O)c2ccccc2)c1,-3.4%,nt,13.3%,nt
O=C(CSc1nnc(-c2ccc(S(=O)(=O)N3CCOCC3)cc2)o1)c1ccccc1F,4.2%,-5.8%,9.5%,-19.8

# Continued:
SMILES,Rango complex inh,miR-21 FLuc,Rango dissoc inh,GLA inh pH 4.5
Cc1ccc(C(=O)N/C(=C/c2ccco2)C(=O)NCCc2c[nH]c3ccccc23)cc1C,-0.4%,-0.9%,8.5%,-2.1
CN(C)c1ccc(S(=O)(=O)N2CCCCC2)cc1NC(=O)C1=COCCO1,-0.3%,-4.8%,10.7%,nt
CC(C)c1c(O)c2c(n(-c3ccccc3)c1=O)CCCC2,-1.2%,1.7%,-11.7%,-1.8
Cc1cc(C)cc(OCC(=O)Nc2ccc3c(c2)OCO3)c1,-1.4%,-21.4%,-9.5%,2.1
NS(=O)(=O)c1ccc(CNC(=O)C(c2ccccc2)c2ccccc2)cc1,-1.5%,0.2%,12.0%,nt
O=C(NC(=S)Nc1ccccc1[N+](=O)[O-])c1cncc(Br)c1,-6.1%,-16.8%,9.3%,nt
O=C(OCCc1cc2ccccc2c(=O)o1)c1ccc(F)cc1,-1.8%,nt,2.6%,nt
COC(=O)c1c(NC(=O)CCC(=O)O)sc(Cc2ccccc2)c1C,0.1%,-0.7%,-16.8%,2.8
O=[N+]([O-])c1ccccc1/C=N/Nc1nc(N2CCCC2)nc(N2CCCC2)n1,0.1%,0.0%,-13.3%,2.9
COc1ccccc1CNC(=O)Cn1nc(C)c([N+](=O)[O-])c1C,-1.2%,nt,1.5%,nt
O=C(O)c1cc(S(=O)(=O)Nc2ccc3cn[nH]c3c2)ccc1O,2.1%,nt,12.3%,nt
COc1ccccc1C(=O)NN1C(=O)/C(=C/c2cccn2C)SC1=S,nt,0.9%,nt,?
CCCCCCCCNc1nc(Cl)nc(NCc2ccco2)n1,-0.3%,-9.1%,-1.7%,0.1
Cc1nn(Cc2ccccc2Cl)c(C)c1N,2.2%,-6.4%,4.0%,-26.4
O=C(Nc1ccc(S(=O)(=O)N2CCOCC2)cc1)C1CC1,4.7%,0.7%,-9.5%,nt
O=C(CSc1cccc2cccnc12)N/N=C/c1ccncc1,-0.5%,-2.3%,-0.1%,-0.3
COc1ccc(CN2CC(=O)N(c3cc(Cl)ccc3OC)C2=S)cc1OC,-1.9%,-0.4%,-2.0%,nt
O=C(NCc1ccccc1)c1ccc(NS(=O)(=O)c2cccs2)cc1,-4.1%,nt,8.6%,nt
O=C1CN(C(=O)COC(=O)c2cccc(Br)c2)c2ccccc2N1,-3.3%,nt,0.4%,nt
COc1cccc(CC(=O)Nc2nc(-c3cc(OC)ccc3OC)cs2)c1,0.0%,-15.1%,-4.1%,1.8
Cc1cccc(Nc2nc(-c3ccc(O)cc3O)cs2)n1,0.1%,-56.9%,3.3%,nt
CN1CCN(C(=O)C2CCCN(S(=O)(=O)c3ccc(F)cc3)C2)CC1 (configuration not stated),-2.7%,0.1%,-8.9%,nt
CC(C)(C)OC(=O)N1CCC[C@H]1C(=O)N/N=C/c1ccc2nccnc2c1,2.9%,-0.8%,8.3%,6.0
COc1ccc(NS(=O)(=O)c2ccc(C)c(C(=O)NCC(c3cccs3)N3CCOCC3)c2)cc1 (configuration not stated),2.6%,nt,6.0%,nt
O=C(NCC1CCCO1)c1cc2ccccc2o1 (configuration not stated),2.1%,-38.3%,20.7%,nt
SMILES,Rango complex inh,miR-21 FLuc,Rango dissoc inh,GLA inh pH 4.5
CC1CCCN(S(=O)(=O)c2ccc3c(c2)n(C)c(=O)c(=O)n3C)C1 (configuration not stated),1.7%,-0.2%,-12.2%,-0.7
COc1cccc(-c2cc(C(=O)O)[nH]n2)c1,-2.5%,-3.4%,6.0%,16.3
CCOC(=O)C1=C(C)c2ccccc2OC1C(=O)OCC (configuration not stated),0.5%,nt,1.1%,-3.7
CCOC(=O)c1cccc(NC2c3ccccc3C(=O)N2Cc2ccco2)c1 (configuration not stated),1.5%,12.6%,-0.9%,-27.1
Cc1nn(-c2ccccc2)c(C)c1/C=N/NC(=O)c1cc(C(C)(C)C)[nH]n1,-2.8%,-13.6%,-14.1%,-10.3
CN1CCN(c2ccc(C(=O)c3cn(-c4ccc(F)c(Cl)c4)nn3)cc2)CC1,-0.3%,-6.9%,-4.3%,-5.6
COc1ccc(Cl)cc1C(=O)NNC(=O)CSc1nncn1C,-1.0%,nt,-0.2%,nt
O=C(CN1CCN(S(=O)(=O)c2ccc3ccccc3c2)CC1)NC(=O)NC1CCCCC1,1.1%,7.6%,14.1%,2.2
Cc1ccc(-n2ncc3c(=O)[nH]c(SCC(=O)N4CCCC4)nc32)cc1C,0.9%,0.8%,-15.6%,3.7
COc1ccccc1N1CCN(C(=O)c2ccc3[nH]c4c(c3c2)CC(C)CC4)CC1 (configuration not stated),-0.7%,14.2%,-6.9%,-26.1
COC(=O)Cc1csc(Nc2ccc(Cl)cc2)n1,-5.0%,-52.3%,-1.3%,-8.0
Cc1ccc(C2=NN(CCC(=O)NCc3ccc4c(c3)OCO4)C(=O)CC2)cc1,-3.4%,-5.1%,25.4%,-0.2
COc1cc(/C=N/NC(=O)c2cc(-c3ccccc3C)nc3ccccc23)cc(OC)c1O,-0.1%,nt,-20.2%,nt
CCOC(=O)Cn1c(-c2cccnc2)nc(-c2ccccc2)c1-c1ccccc1,-0.2%,13.0%,13.7%,nt
O=c1c(Cc2ccc(Cl)cc2)c(O)ccn1Cc1cccs1,0.0%,0.1%,6.0%,5.7
CCc1cccc(OCC(O)Cn2c(N3CCCCC3)nc3c2c(=O)[nH]c(=O)n3C)c1 (configuration not stated),3.1%,-5.5%,19.3%,nt
COC(=O)c1ccc(C)c(NC(=O)CSc2sc3c(O)cc(=O)[nH]c3c2C#N)c1,-2.3%,-3.5%,-7.9%,nt
COc1ccc2oc(=O)c(C(=O)NCCc3ccc(OC)c(OC)c3)cc2c1,-3.3%,5.0%,-15.2%,nt
C#CCOCCOCCOCCNc1nc(N2CCN(C(=O)[C@H]([C@@H](C)CC)n3cc([C@@H](N)CC(C)C)nn3)CC2)nc(N2CCN(C(=O)[C@H](Cc3cc4ccccc4[nH]3)n3cc([C@@H](N)CC(C)C)nn3)CC2)n1,nt,-9.5%,nt,-2.6
S=C(c1ccc(N2CCOCC2)cc1)N1CCCCC1,0.1%,-20.4%,7.4%,-2.9
CCCC1CCC(C(=O)Nn2c(C)nc3ccccc3c2=O)CC1 (configuration not stated),1.1%,-27.6%,-15.7%,7.1
COC(=O)CCCn1nc(NC(=O)COc2ccc(F)cc2)cc1C,3.4%,0.4%,-13.2%,nt
